CDC25B-CDK2 inh: human CDC25B-CDK2/CyclinA binding inhibition; HTRF CDC25B-CDK2/CyclinA binding, anti-His/anti-Flag; hits give high values; z-score (test concentration not listed); hit rate 0.72% among 94,000; AID 1259370;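 also: score is relative to mean and SD of negative controls; strong numbers were not always called active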
TAR Tat displ: HIV-1 TAR-Tat binding disruption | hit rate 0.6% among 100,000 | z-score (test concentration not listed) | HIV-1 TAR RNA, Tat peptide displacement FRET; hits give high values | AID 1259389;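 also: score is relative to mean and SD of negative controls; some compounds called inactive have numbers as strong as hits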
* = called active by the depositor; x = not tested or not shown.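 The calls were made as follows: active = z-score from 3 up in half or more of its runs; inactive = the rest.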

structure	CDC25B-CDK2 inh	TAR Tat displ
CCSc1nnc2c(n1)OC(c1cc(OC(C)=O)ccc1Cl)N(C(C)=O)c1ccccc1-2 (configuration not stated)	-0.97	-0.74
CC1=C(C)CC2C(=O)N(c3ccc(N4CCCCC4)cc3)C(=O)C2C1 (configuration not stated)	-0.26	-1.2
CC1CCc2c(sc3nc(CCC(=O)NC4CC4)[nH]c(=O)c23)C1 (configuration not stated)	x	-1.4
CC(C)(C)c1cc(C(c2ccccn2)N2CCOCC2)cc(C(C)(C)C)c1O (configuration not stated)	-0.8	0.43
Cc1ccc(C2CC(C(F)(F)F)n3nc(C(=O)NC(C)C)cc3N2)cc1 (configuration not stated)	-0.5	2.8
COC(=O)c1ccc(OCC(O)Cn2c[n+](C)c3ccccc32)cc1 (configuration not stated)	0.92	0.61
O=C(CN1C(=O)c2ccccc2S1(=O)=O)NCC1CCCO1 (configuration not stated)	-0.51	x
Nc1nonc1C(=O)N1CCN(C(=O)c2cccs2)CC1	-2.2	1.4
Cc1ccc(CCNS(=O)(=O)c2ccc3c(c2)C(C)(C)C(=O)N3C)cc1	x	1.8
COc1ccc(N2CCN(c3ncnc4c3cnn4-c3ccccc3)CC2)cc1	x	2.4
O=[N+]([O-])c1ccc(-c2ccn[nH]2)s1	-1.1	x
CCCC12CN3CC(CCC)(CN(C1)C3c1cccc(Br)c1)C2=O (configuration not stated)	-0.83	x
CCC(C)N1C(=O)CCC1C(=O)N1CCN(c2ccc(F)cc2)CC1 (configuration not stated)	-2.4	x
CCCOC(=O)C1C2C=CC3(CN(Cc4ccccc4)C(=O)C13)O2 (configuration not stated)	-0.84	0.77
Cc1ccc(-c2c(C)c(C(=O)O)c3n(c2=O)CCC3)cc1	1.1	0.52
CC1CCc2cc(F)ccc2N1C(=O)Nc1ccc(F)cc1 (configuration not stated)	-1.4	-0.46
O=C(NCc1ccc2c(c1)OCO2)c1cccc(NC2=NC3CS(=O)(=O)CC3S2)c1 (configuration not stated)	-1.2	0.18
CCCSc1nc2c(c(=O)[nH]1)C(c1sccc1C)C(C(=O)OCC)=C(C)N2 (configuration not stated)	0.25	-1.8
O=C1CSc2nnc(Cn3nnc4ccccc43)n2N1	-1.4	1.6
CCN(CCCNS(=O)(=O)c1ccc2c(c1)oc(=O)n2C)c1ccccc1	-0.48	x
Cc1noc2ncn(CC(=O)NC3CCCC3)c(=O)c12	x	0.32
Cn1c2c(c(=O)n(C)c1=O)C(NC(=O)c1cccs1)(C(F)(F)F)C(=O)N2 (configuration not stated)	-2.8	x
COc1ccc(Cl)cc1NC(=O)C(C)n1nnc2sc3c(c2c1=O)CCCC3 (configuration not stated)	-1.9	0.02
CC1(C)CC(=O)C2=C(C1)c1c(ccc3ccccc13)NC2c1ccccc1 (configuration not stated)	0.03	4.7
CN(n1cnc2ccsc2c1=O)S(=O)(=O)c1ccc(Cl)cc1	-0.65	x

structure	CDC25B-CDK2 inh	TAR Tat displ
Cc1ccc(CSc2nnc(NC(=O)c3snnc3C)s2)cc1	0.38	-0.3
Clc1ccc(-c2noc3ncnc(NCCC4=CCCCC4)c23)cc1	-1.1	2.7
Cc1nnc2c(NCc3ccco3)nc3ccccc3n12	-1.5	0.11
CC(C)CNC(=O)N1CCC2(CC1)Nc1ccccc1-n1cccc12	x	0.71
Cc1ccc(NS(=O)(=O)c2ccc(-c3n[nH]c(C)c3C)s2)cc1F	x	-0.19
CCc1cc(=O)oc2c(C)c(OCC(=O)OC)ccc12	-1	x
CCS(=O)(=O)Nc1cc(-c2cn3ccccc3n2)ccc1C	-1.4	1.9
Clc1ccc2c(c1)C(N1CCNCC1)=Nc1ccccc1O2	-0.35	1.9
CC(C)OC(=O)c1ccc(N2CC(O)=C(c3nc4ccccc4s3)C2=N)cc1	-1.5	-0.14
O=C1c2oc3ccccc3c(=O)c2C(c2cccc(Br)c2)N1c1ccccn1 (configuration not stated)	-2	1.3
Cc1cc(C(=O)CSc2nnc3ccccn23)c(C)n1-c1ccccc1	0.14	x
NC1(C(=O)O)CCc2cc(C(=O)O)ccc21 (configuration not stated)	-0.27	x
COC(=O)c1c(C)oc2ccc(NS(=O)(=O)c3ccccc3)cc12	0.54	x
c1ccc(-c2nn3cnnc3s2)nc1	-1.3	0.58
Cc1[nH]c(C)c(S(=O)(=O)Nc2cc(F)ccc2F)c1C(=O)N1CCCC1	x	0.7
CCCCN(C)CCCNC(=O)Cn1ncc2c3ccccc3n(C)c2c1=O	-0.24	-0.57
O=C(CCCC(=O)NCc1cccs1)NCc1cccs1	-0.7	x
CC1(C)Cc2nc(N)c(C(=O)O)cc2CO1	0.49	0.19
CC(C)(C)NC(=O)c1cccc(N2C(=O)c3cccc([N+](=O)[O-])c3C2=O)c1	0.16	x
Cc1nn(-c2nc3ccccc3n2C)c2c1C(c1cc(F)ccc1F)CC(=O)N2 (configuration not stated)	x	2.4
O=C(CSc1nc(-c2ccc(Cl)cc2)[nH]c(=O)n1)Nc1ccc(Cl)cc1	-2.1	x
COc1ccc(NC(=O)N2CCn3cccc3C2C(C)C)cc1OC (configuration not stated)	x	0.41
CC1CCCCC1NC(=O)CC(C)S(=O)(=O)c1ccc2c(c1)NC(=O)CO2 (configuration not stated)	x	2
CCOC(=O)c1c(C)[nH]c(C)c1S(=O)(=O)N1CCCC(C(=O)NC2CCCCC2)C1 (configuration not stated)	x	-0.06
Cc1cc(-c2ccc(C)c(S(=O)(=O)NCC(C)c3ccccc3)c2)on1 (configuration not stated)	x	0.93

structure	CDC25B-CDK2 inh	TAR Tat displ
COc1ccc(NC(=O)c2c(NC(=O)c3ccco3)sc3c2CCC3)cc1	1.2	-0.17
CC1Cc2cc(S(=O)(=O)Nc3ccc(Cl)cc3)ccc2N1C(=O)C1CC1 (configuration not stated)	x	0.13
Cc1ccccc1OCc1nnc(SCc2cc(=O)n3nc(C(C)C)sc3n2)n1C	x	0.19
Cc1ccc2[nH]c(=O)c(-c3noc(C(C)(C)C)n3)cc2c1	-1.7	0.82
Cc1ccc(-n2cc(-c3ccccc3)c3c(N4CCOCC4)ncnc32)cc1	-2	x
Fc1ccc(OCc2nc3ccccc3[nH]2)cc1	-1.3	2.6
COc1ccc(S(=O)(=O)c2cc3cc(Br)ccc3oc2=O)cc1OC	-2.1	x
CC(C)(C)C(=O)Nc1ncccc1C(=O)O	-0.43	x
COC(=O)[C@@H](N)Cc1ccc(O)c(O)c1	-1.5	x
Cc1nc2sccn2c(=O)c1S(=O)(=O)N1CC(=O)N(CCc2ccccc2)C(=O)C1	x	2.2
COc1ccc(NC(=O)c2csc3c2CCCC3)c(OC)c1	-1.4	1.2
N#CC(C#N)C(CC(=O)c1ccc(Cl)cc1)c1cccs1 (configuration not stated)	-1.2	x
Cc1nc2ccccn2c1-c1csc(Nc2ccc(C(=O)O)cc2)n1	-3.3	x
CC(C)CCNc1nccn(-c2ccc(F)cc2)c1=O	x	-1.8
CN(C)CCN(Cc1ccccc1)S(=O)(=O)c1ccc(-c2cc(C(F)(F)F)on2)s1	x	2.5
CCOC(=O)C1=C(c2ccccc2)N=C2SCC(=O)N2C1c1cccc(OC)c1OC (configuration not stated)	-0.07	-0.08
Cc1c(C(=O)N2CCCC2)c(S(=O)(=O)Nc2ccc3c(c2)OCCO3)c(C)n1C	x	1.4
Cc1c(C)c(C)c(C(=O)c2ccccc2C(=O)NN)c(C)c1C	-0.76	x
Cc1cc(=O)nc2c3ccccc3n(C(C)C(=O)Nc3cc(F)ccc3F)n12 (configuration not stated)	-2.5	-0.86
O=C(O)c1nccnc1C(=O)NC1CCN(Cc2c(F)cccc2Cl)CC1	-2.6	x
CCOC(=O)c1cn(CC(=O)NCCC(C)C)c2nc(C)ccc2c1=O	x	1.3
COc1ccc(/C(O)=C2\C(=O)C(=O)N(CCCN(C)C)C2c2ccc(N(C)C)cc2)cc1 (configuration not stated)	-2.3	-0.11
O=C(NCc1ccc2c(c1)OCO2)c1ccc2c(Cl)c3c(nc2c1)CCCC3	-1.8	x
CCOC(=O)c1cn2ncc(C(=O)OCC)c2nc1C	-1.7	0.3
CC(=O)N1N=C(c2sccc2C)OC1Cn1nnc2ccccc21 (configuration not stated)	x	1.3

structure	CDC25B-CDK2 inh	TAR Tat displ
COc1cc(-c2nc3sc4c(c3c(=O)[nH]2)CCCC4)ccc1OC(=O)c1cccs1	-1.5	2.1
Oc1ccc(Cl)cc1C(c1c[nH]c2ccccc12)c1c[nH]c2ccccc12	-1.2	-0.3
O=S(=O)(c1ccc(-c2cc(C(F)(F)F)on2)s1)N1CC=C(c2ccccc2)CC1	x	0.44
CCN1CCCC1CNC(=O)Cn1ncc2c([nH]c3ccccc32)c1=O (configuration not stated)	x	0.3
Cc1cccc(COc2ccc(C3CC(=O)Nc4c3c(C)nn4-c3ccc4nnc(C)n4n3)cc2)c1 (configuration not stated)	x	1.4
CC1CCc2nn(CC(=O)NC3CCCC3)cc2C1 (configuration not stated)	-0.2	x
CNC(=O)Cn1c(=O)c2cccn2c2ccc(F)cc21	x	-0.04
O=C(Nc1cc(F)ccc1F)N1CCn2cccc2C1Cc1ccccc1 (configuration not stated)	x	-0.36
O=C(Cc1csc2nc(-c3ccc(F)cc3)cn12)N1CCc2ccccc21	x	1.4
CCOC(=O)C1=C(N)OC2=C(C(=O)CC(C)(C)C2)C1c1ccc(O)c(OC)c1 (configuration not stated)	-1.2	x
COc1cccc(-c2nc(SCCOc3cccc(C)c3)n3[nH]c(=O)cc3n2)c1	x	1.7
CCOC(=O)Nc1ccc(C(F)(F)F)cc1Cl	-1.5	x
Cc1nnc(NC(=O)c2c(-c3ccccc3)noc2C)s1	1.7	x
COC(=O)c1cc2oc(C)cc2n1Cc1ccc(Br)cc1F	-1.4	-1.3
CCN(CC)C(=O)C1CCCN(S(=O)(=O)c2c(C)noc2/C=C/c2ccco2)C1 (configuration not stated)	x	0.39
COC(=O)c1cc(NC(=O)COc2c(C)cc(Cl)cc2Cl)cc(C(=O)OC)c1	-3.3	x
Cc1cc(S(=O)(=O)Nc2ccc3c(c2)N(S(=O)(=O)c2ccccc2)CCC3)ccc1F	x	2.5
N#C/C(=C\N1CCN(Cc2ccccc2)CC1)S(=O)(=O)c1ccc(Cl)cc1	-1.7	x
O=C(CSc1nccn1Cc1ccco1)Nc1ccc(Br)cc1	x	2
COC(=O)C1=C(C)Nc2ncnn2C1c1ccc(O)cc1 (configuration not stated)	0.44	-1.7
O=c1cc2nc(-c3ccccc3)nc(SCc3cccc(Br)c3)n2[nH]1	x	1.1
COc1cccc(C2c3c(oc4cc(C)c(C)cc4c3=O)C(=O)N2c2ccccn2)c1 (configuration not stated)	-0.82	-0.06
CCc1ccc(NS(=O)(=O)c2ccc3nc(-c4ccccc4)[nH]c3c2)cc1	-0.9	x
N#C/C(=N\Nc1ccc(F)cc1)C(=O)C1CC1	-0.96	x
CC1=CC(C)(C)N(S(=O)(=O)c2ccc(F)cc2)c2ccc(C)cc21	-1.4	2

Quoted from the listing.
TAR Tat displ with CNC(=O)Cn1c(=O)c2cccn2c2ccc(F)cc21 : -0.04
TAR Tat displ with COC(=O)C1=C(C)Nc2ncnn2C1c1ccc(O)cc1 (configuration not stated) : -1.7
TAR Tat displ with Cc1cc(S(=O)(=O)Nc2ccc3c(c2)N(S(=O)(=O)c2ccccc2)CCC3)ccc1F : 2.5
CDC25B-CDK2 inh with COc1cc(-c2nc3sc4c(c3c(=O)[nH]2)CCCC4)ccc1OC(=O)c1cccs1 : -1.5
TAR Tat displ with COC(=O)c1cc2oc(C)cc2n1Cc1ccc(Br)cc1F : -1.3
CDC25B-CDK2 inh with N#C/C(=N\Nc1ccc(F)cc1)C(=O)C1CC1 : -0.96
CDC25B-CDK2 inh with CCc1ccc(NS(=O)(=O)c2ccc3nc(-c4ccccc4)[nH]c3c2)cc1 : -0.9

Additional results
structure	CDC25B-CDK2 inh	TAR Tat displ
Cc1ccc(C)c(S(=O)(=O)N2CCN(c3cc(N4CCCCC4)nc(C)n3)CC2)c1	-0.03	0.57
O=C(NCc1ccc(F)c(Cl)c1)Nc1csc([N+](=O)[O-])c1	-0.21	x
Cc1cccc2[nH]c(-c3ccc(N)cc3)nc12	-1	-7.3
COc1cc(OC)cc(OCC(O)Cn2cnc3cc(C)c(C)cc32)c1 (configuration not stated)	-0.29	-1.2
CCN(c1ccccc1)S(=O)(=O)c1ccc2c(c1)NC(=O)CCS2	x	1.8
O=C(NC1CCCc2ccccc21)c1cccs1 (configuration not stated)	-0.55	x
c1ccc(CNc2nn3cnnc3c3ccccc23)cc1	-0.45	-1.4
O=C(O)CCC(=O)N1CCc2cc(S(=O)(=O)N3CCc4ccccc4C3)ccc21	-0.23	x
Cc1cc(NCc2cccnc2)no1	-1.3	x
CCS(=O)(=O)N1CCCc2ccc(NS(=O)(=O)c3ccc(F)c(C)c3)cc21	x	-0.68
Cc1nonc1NC(=O)c1oc2ccc(F)cc2c1C	-0.86	-0.3
Cc1c(C(=O)NC2CCC(C)CC2)oc2ccc(S(=O)(=O)N3CCCC3)cc12 (configuration not stated)	-0.8	x
CCCCCn1cnc2scc(-c3ccc(C)cc3)c2c1=O	-1.9	1
Fc1ccc(C(c2ccccc2)(c2ccccc2F)n2ccnc2)cc1 (configuration not stated)	x	1.8

Structures listed so far containing a tert-butyl group, in the order listed:
structure	CDC25B-CDK2 inh	TAR Tat displ
CC(C)(C)c1cc(C(c2ccccn2)N2CCOCC2)cc(C(C)(C)C)c1O (configuration not stated)	-0.8	0.43
CC(C)(C)NC(=O)c1cccc(N2C(=O)c3cccc([N+](=O)[O-])c3C2=O)c1	0.16	x
Cc1ccc2[nH]c(=O)c(-c3noc(C(C)(C)C)n3)cc2c1	-1.7	0.82
CC(C)(C)C(=O)Nc1ncccc1C(=O)O	-0.43	x

Not a hit list; overall some 0.9% were active at least once.
